Compound activity (PubChem BioAssay)
2A firefly: lowers the firefly signal of an FMDV 2A StopGo reporter; HEK cells with a luciferase reporter of 2A StopGo recoding; Potency, µM (highest dose often 57.5 µM), without a hit: top-dose signal change, negative = less light; hit rate 0.23% among 120,000; AID 1745856; active = well fitted falling curve with a large enough effect; inconclusive = small, poorly fitted or top-dose-only effect; inactive = no such curve, though single readings can be large or run the other way; note: nearly all actives have a fitted effect of over 60% in size; overnight with compound
2A Renilla: FMDV 2A StopGo reporter, Renilla signal; Potency, µM (series often up to 57.5 µM), inactives show top-dose signal change, negative = less light; HEK cells with a luciferase reporter of 2A StopGo recoding; AID 1745857; hit rate 0.32% among 120,000; active means well fitted falling curve with a large enough effect; inconclusive means small, poorly fitted or top-dose-only effect; inactive means no such curve, though single readings can be large or run the other way; note: nearly all actives have a fitted effect of over 55% in size; overnight with compound
* hit, by the source's call; ? = inconclusive; & = joins results of further samples; [ ] = remark or other dose. % is set by controls: 0 for no effect and ±100 for the full control effect; potency is the fitted concentration of half-maximal effect.

Structure | 2A firefly | 2A Renilla
Cc1ccc(OCC(O)Cn2cnc3sccc3c2=O)c(C)c1 (configuration not stated) | 19.6% | ?
Cc1ccc(Cl)cc1N1CCN(C2(c3ccccc3)C(=O)c3ccccc3C2=O)CC1 | ? | ?
Clc1cccc(Cl)c1COc1ccccc1CNn1cnnc1 | 13.7% | 10.2%
Cc1ccc(-n2nc(C)c3c2NC(=O)CSC3c2ccsc2)cc1 (configuration not stated) | 31.3%[activator] | -5.1%
COCCCNC(=O)c1ccc2c(c1)N(Cc1ccccc1)C(=O)c1ccccc1S2 | -17.4% | 1.9%
CCCCNC(=O)CC1N=C2c3ccccc3N=C(SCC(=O)NCc3ccccc3Cl)N2C1=O (configuration not stated) | -12.3% | 10.8%
Cc1cc(C)c2nc(Nc3nc(C)cc(C)n3)nc(C)c2c1 | 1.2% | -8.3%
Cc1ccc(NC(=O)c2ccc3c(O)c(S(=O)(=O)c4ccc(Cl)cc4)c(=O)[nH]c3c2)cc1 | -11.7% | -8.6%
Cc1cccc(C(=O)Nc2ccc(N3CCC(N4CCCCC4)CC3)c(C(=O)O)c2)c1 | 28.7% | 1.6%
Cc1cccn2c(=O)cc(CSc3nnc(NC(=O)C(C)C)s3)nc12 | -19.4% | -12.2%
COC(=O)c1ccc(NC(=O)COc2c(C)[nH]ccc2=O)cc1 | 42.0%[activator] | -10.2%
CCCCCC(=O)Nc1ccc2oc(-c3cncc(Br)c3)nc2c1 | 23.4% | 6.3%

2 entries from above, with two lines to a compound:
Every second line gives: 2A firefly	2A Renilla
- Clc1cccc(Cl)c1COc1ccccc1CNn1cnnc1
→ 13.7%	10.2%
- Cc1ccc(-n2nc(C)c3c2NC(=O)CSC3c2ccsc2)cc1 (configuration not stated)
→ 31.3%[activator]	-5.1%

Additional structures.
Structure | 2A firefly | 2A Renilla
Cc1ccccc1OCC(=O)Nc1ccc2oc(-c3ccc(F)cc3)nc2c1 | 8.4% | -11.7%
CCN(CC(=O)N(C)C)C(=O)Cn1c(C)c(Br)c2ccccc21 | -6.2% | -10.6%
O=C(CSC1=Nc2ccccc2C2=NC(c3ccccc3)C(=O)N12)Nc1ccc(F)cc1 (configuration not stated) | 19.3% | 185.5%[activator]
Cc1cc(C(F)F)nn1Cc1nc2c3c4c(sc3ncn2n1)CC(C(C)(C)C)CC4 (configuration not stated) | 0.5% | -5.1%
CCCC(=O)N(CC)CCc1ccccc1 | -11.0% | -6.5%
Cc1ccc(CNC(=O)N2CCN(CC(=O)Nc3cccc(C)c3C)CC2)cc1F | -2.1% | -11.2%
CC(N)(C(=O)O)c1ccc(C(F)(F)F)cc1 (configuration not stated) | -8.3% | -5.7%
COCCCNC(=O)/C(C#N)=C/c1c(C)[nH]c2ccccc12 | 52.7%[activator] | 14.0%
CCc1cc2c(=O)c(-c3nncn3-c3ccccc3)coc2cc1OCC(=O)NC(C(=O)O)C(C)C (configuration not stated) | 20.7% | 10.4%
COCCOC(=O)C1=C(C)NC(C)=C(C(=O)OC/C=C/c2ccccc2)C1c1cccc([N+](=O)[O-])c1 (configuration not stated) | 15.3%[11.5 µM] | -4.4%
O=S(=O)(c1ccc(F)cc1)N1CCN(C23CC4CC(CC(C4)C2)C3)CC1 | -3.0% | -4.2%
COc1ccc(C)cc1NC(=O)CN(c1ccccc1)S(=O)(=O)N(C)C | -9.0% | 13.8%
Cc1ccc2c(ccn2CCC(=O)Nc2nnc(C3CC3)s2)c1 | -2.3% | -9.6%
CC(C)Nc1nc(-c2ccc(NC(=O)C(C)(C)C)cc2)cs1 | 69.6%[activator] | -28.4%
Cc1cccc(C(=O)Nc2ccccc2SCc2cc(=O)c3cccc(C)c3[nH]2)c1 | -16.4% | 44.9%[activator]
COC(=O)c1ccc(CNC(=O)c2cc(OC)cc(OC)c2)cc1 | -0.3% | 17.6%
CCONC(=O)C(C)Sc1ccccc1 (configuration not stated) | 11.6% | -7.7%
CNC(=O)c1cc(=O)n(CC(=O)Nc2ccccc2)c2ccccc12 | 8.6% | -11.4%
CCOc1cccc(CNCCCSc2nnnn2C)c1 | -9.6% | -10.8%
COc1cc(OC)cc(C(=O)NCCNC(=O)c2cn(C)c3ccccc23)c1 | 5.6% | 1.3%
Cc1ccccc1OCCN(C)Cc1cc(=O)oc2c(C)c(O)ccc12 | ? | ?
CCOc1ccc(NC(=O)Cc2ccc(-n3c(C)nc4cccnc43)cc2)cc1 | -15.3% | -15.4%
CCCCNC(=O)C1CCCN(S(=O)(=O)CCC)C1 (configuration not stated) | -23.3% | -8.2%
COc1ccccc1NC(=O)CN1C(=O)C2(SCC(=O)N2c2ccc(C)c(C)c2)c2ccccc21 (configuration not stated) | ? | ?

Exported with two lines to a compound: entries from further up.
Every second line gives: 2A firefly, 2A Renilla
> CCCC(=O)N(CC)CCc1ccccc1
 : -11.0%, -6.5%
> Cc1ccc(CNC(=O)N2CCN(CC(=O)Nc3cccc(C)c3C)CC2)cc1F
 : -2.1%, -11.2%
> CC(N)(C(=O)O)c1ccc(C(F)(F)F)cc1 (configuration not stated)
 : -8.3%, -5.7%
> COCCCNC(=O)/C(C#N)=C/c1c(C)[nH]c2ccccc12
 : 52.7%[activator], 14.0%
> CCc1cc2c(=O)c(-c3nncn3-c3ccccc3)coc2cc1OCC(=O)NC(C(=O)O)C(C)C (configuration not stated)
 : 20.7%, 10.4%
> COCCOC(=O)C1=C(C)NC(C)=C(C(=O)OC/C=C/c2ccccc2)C1c1cccc([N+](=O)[O-])c1 (configuration not stated)
 : 15.3%[11.5 µM], -4.4%
> O=S(=O)(c1ccc(F)cc1)N1CCN(C23CC4CC(CC(C4)C2)C3)CC1
 : -3.0%, -4.2%
> COc1ccc(C)cc1NC(=O)CN(c1ccccc1)S(=O)(=O)N(C)C
 : -9.0%, 13.8%
> Cc1ccc2c(ccn2CCC(=O)Nc2nnc(C3CC3)s2)c1
 : -2.3%, -9.6%
> CC(C)Nc1nc(-c2ccc(NC(=O)C(C)(C)C)cc2)cs1
 : 69.6%[activator], -28.4%
> Cc1cccc(C(=O)Nc2ccccc2SCc2cc(=O)c3cccc(C)c3[nH]2)c1
 : -16.4%, 44.9%[activator]
> COC(=O)c1ccc(CNC(=O)c2cc(OC)cc(OC)c2)cc1
 : -0.3%, 17.6%
> CCONC(=O)C(C)Sc1ccccc1 (configuration not stated)
 : 11.6%, -7.7%
> CNC(=O)c1cc(=O)n(CC(=O)Nc2ccccc2)c2ccccc12
 : 8.6%, -11.4%
> CCOc1cccc(CNCCCSc2nnnn2C)c1
 : -9.6%, -10.8%
> COc1cc(OC)cc(C(=O)NCCNC(=O)c2cn(C)c3ccccc23)c1
 : 5.6%, 1.3%
> Cc1ccccc1OCCN(C)Cc1cc(=O)oc2c(C)c(O)ccc12
 : ?, ?

Remaining list, next part
Structure | 2A firefly | 2A Renilla
Cc1cccc(NC(=O)CCS(=O)(=O)c2cc(Br)cc3c2N(C(=O)C2CC2)CC3)c1C | -19.0% | -10.6%
Cn1cnc(S(=O)(=O)N2CCCC(C(=O)Nc3ccc(F)cc3Cl)C2)c1 (configuration not stated) | -13.0% | -3.6%
CCn1nc(C(=O)Nc2ccc(C)cc2)c2ccccc2c1=O | 96.8%[activator] | 0.6%
COc1cccc(NC(=O)C(CCSC)NC(=O)C2CCC(C)CC2)c1 (configuration not stated) | 8.6%&30.5% | 1.2%&74.5%
O=C(Nc1cccc(F)c1)c1ccc2ccccc2n1 | 231.8%[activator] | 18.7%
CCN(CC)S(=O)(=O)c1cc(N)ccc1C | 8.1% | 15.8%
COc1cccc(C(=O)Nc2ccc(Cl)c(-c3nc4ccccc4[nH]3)c2)c1 | 14.2% | 34.7%[activator]
CNC(=O)c1ccc(NC(=O)COC(=O)c2cn(C)c3ccccc23)cc1 | -5.9% | -0.2%
CC(C)CCNC(=O)c1ccc2c(c1)NC(=O)C(C(C)C)N2 (configuration not stated) | 18.7% | -1.6%
CCOC(=O)c1oc2cc(OC(=O)c3ccc(OC)cc3)ccc2c(=O)c1-c1ccccc1OC | 12.7% | -1.9%
COc1ccc(CNC(=O)Nc2cn(CC(C)C)c(=O)c3ccccc23)c(OC)c1 | -1.2% | 10.2%
CCOc1ccc(CCNC(=O)C2CCCN(c3nc4ccc(OCC)cc4s3)C2)cc1 (configuration not stated) | 48.1%[activator] | 7.2%
Cc1cccc(C)c1OCC(=O)NCc1nncn1C | -5.6% | -9.9%
Cc1ccc(-n2nc3c(=O)n(C(C)C(=O)NCc4ccc(OC(C)C)cc4)nc(C)c3c2C)cc1 (configuration not stated) | ? | ?
O=C(c1cc2cc(Cl)cc(Cl)c2oc1=O)N1CCN(Cc2ccccc2)CC1 | -3.6% | -11.4%
CC(C)Cn1cnc2c(N)nc3ccccc3c21 | -13.7%[27 µM] | -4.9%[23.8 µM]
CSc1ccccc1C(=O)Nc1ccccc1C(C)C | 1.7% | -8.8%
COCCCn1c(Cc2c(F)cccc2Cl)n[nH]c1=S | -15.0% | 3.1%
CSc1nnc(NC(=O)c2cc(=O)c3cc(C)c(C)cc3o2)s1 | -13.1% | 4.2%
Cc1onc(-c2ccc(F)cc2F)c1C(=O)Nc1cccc(C(F)(F)F)c1 | 0.0% | -13.0%
N#Cc1ccccc1Cn1c(=O)c2c(ncn2Cc2ccccc2)n(Cc2ccccc2)c1=O | 2.6% | -1.4%
CCCCCCn1c(SCc2ccc(F)cc2)nc2c1c(=O)[nH]c(=O)n2C | 1.1% | -3.7%
CCN(CC)c1ccc(-c2nc(-c3ccco3)no2)cc1[N+](=O)[O-] | -73.3% | -7.4%
CC(NCCc1ccccc1)c1ccccc1 (configuration not stated) | 14.6% | -2.3%
COc1ccc(C)cc1NC(=O)N1CCC(CN2CCOCC2)CC1 | -22.1% | -13.5%
CCOC(=O)CC(NC(=O)CCc1c(C)nc2c(-c3ccccc3)c(C)nn2c1C)c1ccc(OC(C)C)cc1 (configuration not stated) | -2.5% | -0.4%
COc1ccc(-c2ocnc2C(=O)Nc2ccccc2Cl)cc1 | -7.1% | -4.6%
Cc1ccc(C(=O)Nc2ccc(-c3nc4ccccc4s3)cc2C)cc1C | 104.4%&83.5%[activator] | 10.3%&8.3%
CCN(c1ccc(C)cc1)S(=O)(=O)c1nnc(NC(=O)C2CCCCC2)s1 | 52.1%[activator] | 34.5%[activator]
COc1ccc(-c2csc(Nc3cccc(C)n3)n2)cc1OC | 198.3%[activator] | -8.9%
FC(F)(F)c1cc(-c2cccs2)nc(=S)[nH]1 | -5.6% | 5.9%
Cc1ccc(N2CC(c3nc(-c4ccc(Cl)cc4)no3)CC2=O)cc1F (configuration not stated) | -17.9% | -14.6%
CCc1ccc(NC(=O)CSC2=Nc3ccccc3C3=NC(CC(=O)NCc4ccc5c(c4)OCO5)C(=O)N23)cc1 (configuration not stated) | 175.0%[activator] | 60.5%[activator]
Cc1ccc(C2=NS(=O)(=O)N(C)C(C(=O)Nc3cccc(O)c3)=C2)cc1 | ? | ?
CCCCC(=O)Nc1ccc(OCc2cc(=O)n3ccc(C)cc3n2)cc1 | -1.1% | 10.7%
CN(C)C(=O)CNS(=O)(=O)c1ccc(Cl)cc1F | -0.2% | 14.2%
Cc1ccc2c(=O)cc(C(=O)Nc3nonc3-c3ccc4c(c3)CCCC4)oc2c1 | 4.4% | 15.8%
COc1ccc(C)cc1NS(=O)(=O)c1cc(-c2c(C)nn3c2NC(=O)CCC3=O)ccc1OC | -8.1% | 0.0%
CCCCOc1ccc(NC(=O)Cc2ccccc2)c2cccnc12 | 14.3% | -1.3%
CCOC(=O)C(CC(=O)O)c1ccccc1 (configuration not stated) | 22.9% | -11.9%[1.06 µM]
CCn1ncc(-c2cc(C(=O)O)c3ccccc3n2)c1C | 20.3% | -4.1%
O=C(Nc1cccc(Cl)c1)C1CCCC1 | 38.1%[activator] | 46.3%[activator]
Cc1cc(C)cc(N2CCn3c2nc2c3c(=O)n(CCCc3ccccc3)c(=O)n2C)c1 | -14.6% | -3.9%
O=C(NCCc1ccc(Cl)cc1)c1cnc2sc(N3CCOCC3)nn2c1=O | -17.8% | -13.2%
CCSc1nnc(NC(=O)c2cccn(Cc3ccccc3Cl)c2=O)s1 | 29.5% | 9.6%
CC(C)Cn1c(=O)c2sccc2n2c(CCCC(=O)Nc3ccc(Cl)cc3)nnc12 | -18.0% | -5.4%
COc1ccc(CNC(=O)c2ccc(N3CCCC3)c(NC(=O)NCc3ccc(C)cc3)c2)cc1 | ? | -4.5%
Fc1ccc(-c2cnc(COc3ccc(Cl)cc3)o2)cc1 | 41.3%[activator] | 18.4%
CCN(C(=O)c1cn(CC)c(=O)c2cc(OC)c(OC)cc12)c1ccccc1F | 1.7% | 16.4%
CCOC(=O)C1C(=O)C=C(c2ccco2)CC1c1ccccc1 (configuration not stated) | 14.5% | 22.9%
CCOc1ccccc1NC(=O)c1c(NC(=O)Cc2ccc(OC)cc2)sc2c1CCC2 | 99.4%[activator] | 54.0%[activator]

An excerpt; count on the stated rates, not on these rows.
